fixLJ activator = activators of Burkholderia fixLJ two-component system, primary screen, B. multivorans, GFP reporter; B. multivorans fixK-promoter GFP reporter, 18 h; hits give high values; z-score (test concentration not listed); 29,000 tested, 0.3% active; AID 1918990, 2023;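 active = replicate mean overnight rise in green fluorescent reporter signal, 3 or more SD over negative controls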;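 also: score is relative to vehicle wells of the plate; 300 nL library stock went into each well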
An asterisk follows results filed as active.

SMILES	fixLJ activator
Cc1ccc(NC(=O)Cn2cc(C(=O)C3CCCCC3)c3ccccc32)c(C)c1	-0.88
Cc1cc(Br)ccc1NC(=O)CCNS(=O)(=O)c1cccc2nonc12	-0.56
O=S(=O)(c1ccc(Cl)cc1)c1nc(-c2ccccc2Br)oc1NCc1ccccc1	1.9
CN(CCc1noc(C2CC2)n1)C(=O)c1ccc2cccc(F)c2n1	-0.32
COc1ccc(CNCc2c(C(=O)O)c(C)n(Cc3ccccc3C)c2C)cc1OC	0.05
CCNC(=O)c1ccc(NC(=O)NC(c2ncnn2C)C(C)C)cc1Cl (stereo unspecified)	-2.9
CC(=O)[C@H]1CC[C@H]2[C@@H]3CCC4=CC(=O)CC[C@]4(C)[C@H]3CC[C@]12C	-0.86
N#C/C(=C\c1ccc(Cl)cc1)c1nc(-c2cc3c(ccc4ccccc43)oc2=O)cs1	0.61
COc1ccc(C(=O)N2CCCC2=O)cc1	-0.95
Cc1ccc(S(N)(=O)=O)cc1C(=O)NC1COC2(CCCCC2)C1 (stereo unspecified)	-1.4
CN(CCc1noc(C(F)(F)F)n1)C(=O)c1ccc(N(C)C)nc1	-0.15
Cc1ccc(C(C)C)c(OCC(=O)Nc2ccc3c(c2)nc(CCNC(=O)c2ccco2)n3C)c1	0.25
CCN(C(=O)Cn1cc(S(=O)(=O)N2CCN(c3ccccc3F)CC2)c2ccccc2c1=O)c1ccc(C)c(C)c1	0.79
COc1cc(OC)cc(-c2nc3nc(C)c(CCC(=O)Nc4ccc(C)c(C)c4)c(C)n3n2)c1	-0.01
COc1ccc2[nH]c(CNC(=O)c3ccc(C(=O)N4CCOCC4)cc3)cc2c1	-1.2
COc1ccc(CCNc2nc3ccccc3c3nc(-c4cccc(C)c4)nn23)cc1OC	-0.52
Cc1cccc(C)c1NC(=O)C(NS(=O)(=O)c1cccs1)c1ccccc1 (stereo unspecified)	-1.2
Cc1ccccc1Cn1c(=O)n(CCCCCC(=O)NCc2ccc3c(c2)OCO3)c(=O)c2sccc21	-1.2
Cc1ccc(C)c(NC(=O)CCCn2c(C)c3cnn(-c4ccccc4)c(=O)c3c2C)c1	-1.6
O=C(CN1C(=O)CC(c2ccco2)Sc2ccccc21)Nc1ccc(OC(F)(F)F)cc1 (stereo unspecified)	-2.1
CC(C)(C)c1ccc(-c2nnc(-c3ccccc3NC(=O)c3cccc(C(F)(F)F)c3)o2)cc1	-2.7
CC(C)c1noc(C(C)NC(=O)N(C)Cc2n[nH]c3c2CCCC3)n1 (stereo unspecified)	-0.1
COc1cccc(/C=C/c2nc(C#N)c(NCCc3ccc(OC)c(OC)c3)o2)c1	-0.78
O=C(CCn1cccc1)N1CCC2OCc3cnnn3C2C1 (stereo unspecified)	-2.1
O=C(Nc1nc2ccc(F)cc2s1)c1nc(SCc2ccccc2F)ncc1Cl	-0.57
CC(Oc1ccc(F)cc1Cl)C(=O)NCc1csc(N(C)C)n1 (stereo unspecified)	1.1
CCn1cc(C(=O)NCCCOC(C)C)c(=O)c2cc(S(=O)(=O)N(C)C3CCCCC3)ccc21	0.63
O=C(Nc1ccccc1C(F)(F)F)N1CCC2(CC1)Oc1ccccc1C(=O)N2Cc1ccccc1F	-3.4
CCN1C(=O)c2ccccc2S(=O)c2ccc(C(=O)N3CCN(c4ccccc4OC)CC3)cc21 (stereo unspecified)	-0.61
COC(=O)c1ccccc1NC(=O)c1c(NC(=O)c2ccco2)sc2c1CCC(C(C)(C)C)C2 (stereo unspecified)	-0.95
CN(CCCOc1cccc(Cl)c1)C(=O)CCNS(C)(=O)=O	-2.6
CC12CN3CC(c4ccccc4)(CN(C1)C3c1ccc(O)cc1)C2=O (stereo unspecified)	-1.4
Cc1nc2c(C)cccc2cc1C(=O)N1CCC(CS(N)(=O)=O)C1 (stereo unspecified)	-0.96
Cc1ccc(-n2c(=O)c3c(C)c(C)sc3n(CC(=O)c3ccc(Cl)cc3)c2=O)cc1C	-1.3
Cc1ccc(Cl)cc1NC(=O)C(NS(=O)(=O)c1ccc2c(c1)CCC(=O)N2)c1ccccc1 (stereo unspecified)	-2.2
COc1cc(CN(CC2CCCO2)C(=O)c2ccc(F)cc2)cc(OC)c1OC (stereo unspecified)	-0.22

An excerpt of these results, bar-delimited.
SMILES | fixLJ activator
O=C(CCn1cccc1)N1CCC2OCc3cnnn3C2C1 (stereo unspecified) | -2.1
O=C(Nc1nc2ccc(F)cc2s1)c1nc(SCc2ccccc2F)ncc1Cl | -0.57
CC(Oc1ccc(F)cc1Cl)C(=O)NCc1csc(N(C)C)n1 (stereo unspecified) | 1.1

(continued)
SMILES	fixLJ activator
CC(=O)Nc1ccc(S(=O)(=O)Nc2ccc3c(c2)n(C)c(=O)n3C)c(C)c1	-0.87
CC1CCN(c2oc(-c3cccs3)nc2S(=O)(=O)c2ccc(Cl)cc2)CC1	1
Cc1cccc(C)c1NC(=O)Cn1c(=O)n(Cc2ccccc2Cl)c(=O)c2cccnc21	-0.92
Cc1cccn2c(=O)c3cc(C#N)c(=O)n(-c4nnc(SCc5ccccc5F)s4)c3nc12	-1.6
CC(C)OCC(=O)NC1CC(c2nnc(CO)n2C2CC2)C1 (stereo unspecified)	0.34
O=C(c1cn[nH]c1-c1ccccc1)N1CCC(n2cnnc2)CC1	0.06
CC(C)c1ccc(OCC(=O)Nc2cc(-c3nc4ncccc4o3)ccc2Cl)cc1	0.08
COc1ccccc1C1C(C(=O)Nc2ccccc2)=C(C)Nc2nc(-c3ccccc3)nn21 (stereo unspecified)	-3.6
COCCn1cnnc1CNC(=O)Nc1ccc(C(=O)N2CCCC2)cc1C	-2
Cc1cccc(CN2CCN(CC(=O)NCCc3ccc(Cl)cc3)C2=O)c1	-1.4
CCOC(=O)C1=C(CS(=O)(=O)c2cccc(C(F)(F)F)c2)NC(=O)NC1c1cccc(OC)c1 (stereo unspecified)	-2.4
Cc1ccc2c(CC(=O)Nc3cccc(Cl)c3C)coc2c1	-0.16
Cc1ccc(-n2c3c(cc(-c4nc(-c5ccc(Cl)cc5)cs4)c2=O)C(=O)CC(C)(C)C3)cc1C	-1.6
COCCN1C(=O)c2[nH]nc(-c3cc(C)ccc3O)c2C1c1ccc(C(C)C)cc1 (stereo unspecified)	-4.4
CCOc1ccc(/C=C/C(=O)Nc2sc3c(c2C(=O)OC)C(C(=O)OC)CC3)cc1 (stereo unspecified)	-0.2
COc1ccc(C(=O)NC2(C(F)(F)F)C(=O)NC(C)=C2C#N)cc1 (stereo unspecified)	-2.8
Cc1ccc(CN(Cc2cccn2-c2nnc(N3CCCC3=O)s2)C(=O)Nc2ccccc2C(F)(F)F)cc1	0.3
CCCN(C(=O)C(=O)Nc1ccc2nc3n(c(=O)c2c1)CCCCC3)c1ccc(OCC)cc1	-0.8
Cc1ccccc1NC(=O)CCn1nc(-c2ccc(Cl)cc2)c2ccccc2c1=O	-2.7
Cc1ccc2[nH]c(=O)c3cc(C(=O)N4CCN(c5ccccc5F)CC4)sc3c2c1	0.34
CC(=O)Nc1ccc(NC(=O)CN2C(=O)CC(c3ccco3)Sc3ccccc32)cc1 (stereo unspecified)	-0.09
Cc1ccccc1C(OCCN(C)C)c1ccccc1 (stereo unspecified)	-0.17
CCOc1ccc2nc(N3CCCC(C(=O)Nc4ccc(CC)cc4)C3)sc2c1 (stereo unspecified)	-0.87
COc1ccc(-c2ccc(CCC(=O)O)n2-c2cc(Cl)ccc2O)cc1	-4.1
Nc1nonc1C(=O)NCCNCc1ccc(Cl)c(Cl)c1	-1.2
CSCCC(=O)N1CCC2(C1)C(=O)N(CC(N)=O)c1ccccc12 (stereo unspecified)	-0.54
COc1ccc(N2CCN(c3oc(/C=C/c4cc(OC)c(OC)c(OC)c4)nc3C#N)CC2)cc1	-1
CC(C)C(=O)N1CCn2nc(CNC(=O)c3cccc(-c4cn[nH]c4)c3)cc2C1	-1.2
Cc1c(C(=O)OC2CCCCCC2)[nH]c2c1C(=O)CC(c1ccccc1)C2 (stereo unspecified)	0.17
CC(=O)NC(C)(C)C(=O)N1CCCC2(CCc3cn[nH]c32)C1 (stereo unspecified)	1.1
O=C(CC1CCCCC1)N1CCN(CCO)C2CS(=O)(=O)CC21 (stereo unspecified)	0.38
O=C1Cc2cc(S(=O)(=O)N3CCN(c4cccc(Cl)c4)CC3)ccc2N1	-0.69
CCN(Cc1ccccc1)C(=O)Cn1ncc2c(=O)oc3ccc(C)cc3c21	-1.1
Cc1ccc(CN(Cc2cccn2-c2nnc(N3CCCC3=O)s2)C(=O)Nc2ccc(F)cc2)cc1	-0.18
Cc1c(C2=CCN(S(=O)(=O)c3ccc(CC(C)C)cc3)CC2)c2ccccc2n1CC(=O)N1CCCC1	0.06
COc1cccc(NC(=O)Cn2c(-c3nonc3N)nc3ccccc32)c1	-0.58
Fc1ccc(Nc2nc3ccccc3n3cnnc23)c(F)c1	-0.06
CN(C)Cc1cccc(C(=O)NC2COCC2Cc2ccncc2)c1 (stereo unspecified)	0.55
CC(C)OC(=O)c1c(NC(=O)c2cccc(C(F)(F)F)c2)sc2c1CCCC2	-0.01
O=C(NCc1ccco1)c1ccc2c(c1)N(Cc1ccc(Cl)cc1)C(=O)c1ccccc1S2(=O)=O	-0.2
CCOC(=O)N1CCc2c(sc3c2c(=O)n(Cc2ccccc2)c(=O)n3CC(=O)Nc2ccccc2F)C1	-0.98
CCCc1ccc(NC(=O)C2CCCN(c3cnccn3)C2)cc1 (stereo unspecified)	-2.4
Cc1ncsc1CCC(=O)Nc1cccc(-c2nncn2C)c1C	-3.2
Cc1nc2c(c(C)nn2C(C)(C)C)c(C)c1CCC(=O)Nc1ccc(F)cc1	0.01
C=C1/C(=C\C=C2/CCC[C@]3(C)[C@@H]([C@H](C)/C=C/[C@@H](O)C4CC4)CC[C@@H]23)C[C@@H](O)C[C@@H]1O	-0.91
CCOC(=O)c1cc(OC(=O)c2cc(Cl)ccc2OC)n(-c2ccccc2)n1	-0.75
CCOc1ccccc1CN1CCN(S(=O)(=O)c2ccccc2)CC1	0.83
CN(C)C(=O)c1ccc(NC(=O)Cn2nc(-c3ccccc3)c3ccccc3c2=O)cc1	-0.45
COc1ccc2c(c1)cc1c(=O)n(CC(=O)NCCc3ccccc3)nc(C)n12	-1.7
COc1cc(C2c3c(oc4ccccc4c3=O)C(=O)N2c2nc(C)c(C)s2)ccc1O (stereo unspecified)	-1
Cc1ccc(-c2cc(-c3coc4ccc(Cl)cc4c3=O)c3c(n2)-c2ccccc2OC3)cc1	-0.54
COC1CN(C(C)C)CC1NC(=O)COc1ccc2ccccc2c1 (stereo unspecified)	-1.8
Cc1ccc(C(=O)NCCSc2c(C)[nH]c3ccccc23)cc1C	0.34
Cc1ccc(OCc2nc(C#N)c(NCCc3ccccc3)o2)cc1	0.9
CCCN(C(=O)CCc1nc(-c2ccc(OC)cc2)no1)c1ccccc1F	-0.79
Cc1noc2nc(C3CC3)cc(C(=O)N(C)CCc3noc(C(C)C)n3)c12	0.04
NS(=O)(=O)CC1CCN(C(=O)CCNC(=O)c2ccc(F)cc2)C1 (stereo unspecified)	-0.68
N#Cc1ccc(NC(=O)C2Cc3ccccc3CN2S(=O)(=O)c2ccc(F)cc2)cc1 (stereo unspecified)	-0.82
CCOc1ccccc1C(=O)Nc1ccc2nc(N(CC)CC)cc(C)c2c1	-0.22
COc1ccc(N2CCN(S(=O)(=O)c3ccc(C4CCCCC4)cc3)CC2)cc1	-4.1
Following part
SMILES	fixLJ activator
Cc1ccc(-c2csc(-c3c(N)c(C(=O)c4ccc5c(c4)OCO5)n4ccccc34)n2)cc1C	-2.4
COc1ccc(-c2cc(C(F)(F)F)n3nc(C(=O)Nc4ccc(Cl)cc4C(F)(F)F)cc3n2)cc1OC	0.28
CC(C)N(Cc1nc(-c2ccc(Cl)cc2)no1)C(=O)c1ccco1	-0.83
Cc1ccc(C)c(N2CCN(c3nc4ccc(C)cc4nc3-n3nc(C)cc3C)CC2)c1	-0.15
FC(F)(F)c1cc(-c2cccc(Br)c2)nc2ncnn12	0.15
Cc1c(Cl)cccc1S(=O)(=O)N1CCC(O)C(C(=O)O)C1 (stereo unspecified)	0.02
COc1cccc(-c2noc(COc3ccc(C(C)(C)C)cc3)n2)c1	-0.32
CCOc1ccc(N2CC(c3nc4ccccc4n3CCOc3ccc(CC)cc3)CC2=O)cc1 (stereo unspecified)	-1.7
COc1ccc(-c2nc3ccccc3s2)cc1NC(=O)c1cccc([N+](=O)[O-])c1C	-2.9
COc1cccc(CN2C(=O)c3ccccc3Sc3ccc(C(=O)N(C)Cc4ccccc4)cc32)c1	-0.35
COc1ccc(CCNc2nc3c(-c4cccc(C(F)(F)F)c4)nnn3c3ccccc23)cc1OC	-0.87
COc1ccc(CNC(=O)c2cc3oc4ccccc4c3n2C)cc1OC	-0.42
O=C(c1ccccc1)C1CCCN(C(=O)CN2CCN(c3ncccn3)CC2)C1 (stereo unspecified)	0.21

Among those listed so far, these contain a CF3 group.
SMILES	fixLJ activator
CN(CCc1noc(C(F)(F)F)n1)C(=O)c1ccc(N(C)C)nc1	-0.15
O=C(CN1C(=O)CC(c2ccco2)Sc2ccccc21)Nc1ccc(OC(F)(F)F)cc1 (stereo unspecified)	-2.1
CC(C)(C)c1ccc(-c2nnc(-c3ccccc3NC(=O)c3cccc(C(F)(F)F)c3)o2)cc1	-2.7
O=C(Nc1ccccc1C(F)(F)F)N1CCC2(CC1)Oc1ccccc1C(=O)N2Cc1ccccc1F	-3.4
CCOC(=O)C1=C(CS(=O)(=O)c2cccc(C(F)(F)F)c2)NC(=O)NC1c1cccc(OC)c1 (stereo unspecified)	-2.4
COc1ccc(C(=O)NC2(C(F)(F)F)C(=O)NC(C)=C2C#N)cc1 (stereo unspecified)	-2.8
Cc1ccc(CN(Cc2cccn2-c2nnc(N3CCCC3=O)s2)C(=O)Nc2ccccc2C(F)(F)F)cc1	0.3
CC(C)OC(=O)c1c(NC(=O)c2cccc(C(F)(F)F)c2)sc2c1CCCC2	-0.01
COc1ccc(-c2cc(C(F)(F)F)n3nc(C(=O)Nc4ccc(Cl)cc4C(F)(F)F)cc3n2)cc1OC	0.28
FC(F)(F)c1cc(-c2cccc(Br)c2)nc2ncnn12	0.15
COc1ccc(CCNc2nc3c(-c4cccc(C(F)(F)F)c4)nnn3c3ccccc23)cc1OC	-0.87

Assay outcomes (PubChem)

Only part of the results is shown, so the mix of outcomes need not match the whole.
